Bioassay records: PubChem, ICCB-Longwood Screening Facility, Harvard Medical School
HCMV UL50-53 inh – inhibitors of HCMV UL50-UL53 nuclear egress complex interaction; HTRF UL50-UL53 interaction, normalized percent inhibition; inhibition, % (no concentration beside the values); 190,000 tested, 0.15% active; AID 1918969;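 active = both replicates at 50% or more, plus weaker picks with an unusually low signal ratio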;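 note: stock transfer was 100 nL into about 20 µL; 0% = negative control wells and 100% = wells with untagged competitor protein; inactives centre near -12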
Starred values were filed as active, the others as inactive; & = joins results of further samples. Some of the compounds tested (hit frequency here may not be typical).

SMILES	HCMV UL50-53 inh
Cc1cc(CN2CCN(C)C(CCO)C2)c2cccc(C)c2n1 (centres undefined)	-13.6
COC(=O)c1coc(-c2ccccc2)n1	-29.3
COc1ccc(Cc2nc3ccccc3[nH]2)cc1	-8.8
Cc1ccc2cc(CCNC(=O)C3CCCCC3)c(=O)[nH]c2c1C	-5.5
O=C(OCc1nc2ccccc2s1)c1coc2ccccc2c1=O	54.6*
Cc1nsc(NC(=O)N2CCCCC2c2ccc(F)cc2)n1 (centres undefined)	-6.3
O=C(NN=Cc1cc(Br)c(O)c(Br)c1O)c1cccc(Br)c1	-42.7
CC(=O)O[C@]1(C(C)=O)CC[C@H]2[C@@H]3C=C(C)C4=CC(=O)CC[C@@H]4[C@H]3CC[C@@]21C	-43.2
O=C(Nc1nnc(-c2ccccc2)o1)c1cccc(C(F)(F)F)c1	-7.6
CCCCc1cn(C2CCN(C(=O)C3CCCO3)CC2)nn1 (centres undefined)	-1.2
CCOc1ccc(-n2c(SC)nnc2-c2c[nH]c3ccccc23)cc1	-11.5
CCc1ccc(NC(=O)CSC2=C(C#N)C(c3ccco3)C3=C(CCCC3=O)N2)cc1 (centres undefined)	-8.3
COc1ccc(NC2CS(=O)(=O)CC2NCc2ccccc2)cc1 (centres undefined)	-17.6
Cc1c(NC(=O)c2ccc(C(C)(C)C)cc2)cccc1-c1cn(C)c(=O)c(Nc2ccc(C(=O)N3CCOCC3)cc2)n1	-23.0
O=C(CSc1nnc(NC(=O)c2ccccc2)s1)Nc1ccccc1	10.6&-9.6
CCC(=O)c1ccc2c(c1)OCCO2	-13.2
Cc1nc(Nc2ncc(C(=O)Nc3c(C)cccc3Cl)s2)cc(N2CCN(CCO)CC2)n1	-6.4&-5.3&-11.8&-4.1&-1.3&-3.9&-1.5&7.4&1.8&-57.7
Cc1nc(-c2ccccc2)c(-c2ccncc2)o1	-8.4
O=C(Nc1cccc(-c2csc(Nc3ccccc3)n2)c1)c1cc([N+](=O)[O-])cc(C(F)(F)F)c1	6.7
COc1ccc2cc(CCNC(=O)C(C)C)c(=O)[nH]c2c1	-4.1
C[C@H]1[C@H]2CC[C@H]3[C@@H]4CC=C5C[C@@H](N(C)C)CC[C@]5(C)[C@H]4CC[C@]23CN1C	-1.4
O=C(N/N=C/c1ccc([N+](=O)[O-])o1)c1ccc(O)cc1	-122.4
O=C(Oc1ccc2ccccc2c1)c1cccs1	2.9
Cc1ccc(NC(=O)Cn2nnc3ccccc32)cc1	-16.7
Cc1cnc(Nc2ccc(OCCN3CCCC3)cc2)nc1Nc1cccc(S(=O)(=O)NC(C)(C)C)c1	19.8
CC1CCC(C(C)C)C(OCC(O)CNC(C)(C)C)C1 (centres undefined)	-13.8
CCOC(=O)CCC(=O)OC1C(OC2C(C)C(OC3CC(C)(OC)C(O)C(C)O3)C(C)C(=O)OC(CC)C(C)(O)C(O)C(C)C(=O)C(C)CC2(C)O)OC(C)CC1N(C)C (centres undefined)	-30.5
Cc1ncsc1-c1ccn(CC(=O)Nc2ccnn2C2CCCCC2)n1	-11.6&-11.6
O=C(NCC1NCCc2ccccc21)C1CCCCC1 (centres undefined)	-8.3
CCOc1ccc(NC(=O)c2ccccc2NC(=O)c2cccnc2)cc1	-9.3
Cc1cc(Nc2nc(NC(C)c3ccc(F)cc3)c(C#N)cc2F)n[nH]1 (centres undefined)	-51.6&-15.2&-15.7&-25.4
CCC(C)N1CCC2(CC1)N=c1c(c3c4c5c(C)c(O)c3c(O)c1=NC(=O)/C(C)=C/C=C/[C@H](C)[C@H](O)[C@@H](C)[C@@H](O)[C@@H](C)[C@H](OC(C)=O)[C@H](C)[C@@H](OC)/C=C/O[C@@](C)(O5)C4=O)N2 (some centres undefined)	-82.7
CCOC(=O)c1sc(-c2ccccc2)cc1N	-1.4
Brc1ccc(NC2=NCCC2)cc1	-18.1
CCOC(=O)c1[nH]c(C)c(C(=O)NC2CCCCC2)c1C	-20.4
Cc1ccc(CN2C(=O)CCNc3ccc(C(F)(F)F)cc32)cc1	-5.9
O=C(Nc1ccccc1-c1nc2ccccc2[nH]1)C1=COCCO1	-1.7
OC(COc1ccccc1Cl)CN1CCCC1 (centres undefined)	-5.2
CCn1c2ccccc2c2cc(CNC)ccc21	-26.0
NCC[C@H](O)C(=O)N[C@@H]1C[C@H](N)[C@@H](O[C@H]2O[C@H](CN)[C@@H](O)[C@H](O)[C@H]2O)[C@H](O)[C@H]1O[C@H]1O[C@H](CO)[C@@H](O)[C@H](N)[C@H]1O	-4.4
Cc1nc(C23CC4CC(CC(C4)C2)C3)co1	-12.4
Cc1sc2c(c1C)c(=O)nc1scc(CC(=O)NCCO)n12	9.0&6.6
CC(=O)Nc1ccccc1-c1nc2ccc(C(=O)NCc3ccccc3Cl)cc2[nH]c1=O	-25.1
NC(CC(=O)O)c1ccsc1 (centres undefined)	-4.1
O=C(Nc1n[nH]c(-c2ccco2)n1)N1CCc2c([nH]c3ccccc23)C1	-29.1
CC12C=CC(=O)C=C1CCC1C2=CCC2(C)C1CC[C@@H]2C(=O)CN1CCN(c2cc(N3CCCC3)nc(N3CCCC3)n2)CC1 (some centres undefined)	13.3
Cc1cccc(C(=O)NCCCc2nc3ccccc3[nH]2)c1	-12.0
CCOC(=O)C(C)(C)Sc1ncnc2nc[nH]c12	-10.8
C=C1CCC(O)CC1=CC=C1CCC[C@]2(C)C(C(C)CCCC(C)C)CC[C@@H]12 (some centres undefined)	5.7
CCc1cc(C(=O)N2CC(=O)N(Cc3ccc(OC)cc3)CC(OCc3ccncc3)C2)n(C)n1 (centres undefined)	-5.5
CCSc1nnc(NC(=O)c2ccc(-c3ccccc3)cc2)s1	-10.1
N#Cc1c(N2CCCC2=O)sc2c1CCCC2	-13.7
COc1ccccc1Nc1nc(C)cs1	-18.9&-6.2
COc1ccc(Cc2cnc(N)s2)cc1	-9.2
COc1ccc(NC2=NCCCCC2)cc1	7.4
CC(=O)N1CCc2c(sc(NC(=O)Cc3ccccc3)c2C(N)=O)C1	-33.7
COc1ccc2c(=O)c(-c3cnn(-c4ccccc4)c3)coc2c1	-20.9
O=C(O)c1cn(-c2ccccc2)nc1-c1ccccc1	-27.6
Cc1nc2ccc(C(F)(F)F)cc2[nH]1	-14.5
O=C(CSc1c[nH]c2ccccc12)N1CCCc2ccccc21	8.7

An excerpt from above in order of molar mass, ascending.
SMILES	HCMV UL50-53 inh
Cc1cc(CN2CCN(C)C(CCO)C2)c2cccc(C)c2n1 (centres undefined)	-13.6
Cc1ccc2cc(CCNC(=O)C3CCCCC3)c(=O)[nH]c2c1C	-5.5
O=C(Nc1nnc(-c2ccccc2)o1)c1cccc(C(F)(F)F)c1	-7.6
CCOC(=O)CCC(=O)OC1C(OC2C(C)C(OC3CC(C)(OC)C(O)C(C)O3)C(C)C(=O)OC(CC)C(C)(O)C(O)C(C)C(=O)C(C)CC2(C)O)OC(C)CC1N(C)C (centres undefined)	-30.5

(listing goes on)
SMILES	HCMV UL50-53 inh
COc1ccccc1N1CCN(CC(O)COc2ccccc2C(C)(C)C)CC1 (centres undefined)	-7.1
O=C1CC(=O)c2c(Cl)c(Cl)c(Cl)c(Cl)c21	5.3
COc1cc(Nc2ncc3ccn(-c4cccc(CCC#N)c4)c3n2)cc(OC)c1OC	0.0
COc1ccccc1Nc1nc(-c2ccc(OC)c(OC)c2)cs1	-6.5
c1ccc(CC2CCN(C3CCSC3)CC2)cc1 (centres undefined)	-1.6
N#Cc1c(NC(=O)c2cccc3ccccc23)sc2c1CCCC2	-9.3&-9.2
CCc1cc(-c2cccc(C)c2C)nc(N(C)C)n1	4.4
CCn1c(CNC(=O)C(C)(C)C)nc2ccccc21	-17.6
COc1cc2ncnc(Nc3ccc(O)c(Br)c3)c2cc1OC	-34.0&-17.1
CCOC(=O)CSc1nc2ccccc2c(=O)[nH]1	2.9&-1.6
Cc1sc(/N=C\c2ccccc2Cl)c(C#N)c1C	-4.4
CC(=O)c1c(C)cc(C)c(CNC(C)CCCC(C)(C)O)c1C (centres undefined)	-39.3
Cc1nn2c(=O)c3ccc(C(=O)NCc4ccc(F)cc4)cc3nc2s1	5.2
CC(C)(C)c1ccc(OCC(N)=NC(=O)c2ccc(OC(F)(F)F)cc2)cc1	14.5
CCN1CCN(C(=O)NC(C(=O)NC2C(=O)N3C2SC(C)(C)C3C(=O)O)c2ccccc2)C(=O)C1=O (centres undefined)	-14.0
O=C(Cn1c(-c2ccccc2)c[n+]2ccsc12)c1ccccc1	3.5
CC(=O)N1CCc2c(sc(NC(=O)/C=C/c3ccccc3)c2C#N)C1	-7.6
c1ccc(CCn2cnc3ccccc32)cc1	-20.3
C=C1C(=CC=C2CCC[C@@]3(C)[C@H]2CC[C@H]3C(C)C=CC(C)C(C)C)CC(O)CC1O (some centres undefined)	-20.4
O=C(Nc1nc(-c2ccccc2)cs1)C1=COCCO1	-6.9
CC(C)(C)C(=O)N1CCN(c2nc3ccc(Cl)cc3s2)CC1	-13.1
O=C(O)CCCN1CCC(OC(c2ccc(Cl)cc2)c2ccccn2)CC1 (centres undefined)	-8.8
CC(C)n1cc(C(=O)N2CCCC(c3ccccc3)C2)cn1 (centres undefined)	-16.3
N#Cc1c(-c2cccs2)cc(C2CC2)nc1SCC(N)=O	-10.8
COc1cc(OC)cc(C(=O)NCCc2cc3ccc(C)c(C)c3[nH]c2=O)c1	-23.9
COc1ccc2cc(C(=O)Nc3ccccc3)sc(=O)c2c1OC	-3.6
CCN1C(=O)/C(=C\c2ccc(OCC(N)=O)c(OC)c2)SC1=S	-13.9
CC(=O)Nc1ccc(N=Cc2ccc(OC(=O)c3ccccc3Br)cc2O)cc1	-11.1
CCCC(CCC)C(=O)N1CCC(n2cc(C(C)O)nn2)CC1 (centres undefined)	-18.3
O=C1O/C(=C/Br)CC[C@H]1c1cccc2ccccc12	2.2&2.2
CCN1C(=O)N(C)C(=O)C12CCN(Cc1cc3oc(C)c(-c4ccccc4)c3cc1OC)CC2	-5.0
C=C1C[C@H](O)[C@H](C/C=C\CCCC(=O)O)[C@H]1/C=C/[C@@H](O)CCCCC	-16.1&-16.1
CCN1C(=O)/C(=C2\SC(=S)N(C3CCCC3)C2=O)c2cc(Br)ccc21	2.4
CC1CCc2sc(NC(=O)C(C)C)c(C#N)c2C1 (centres undefined)	-1.7
CCCCC/C=C/C=C1/C(=O)C[C@H](O)[C@@H]1C/C=C\CCCC(=O)O	5.1&5.1
CCOc1cccc(NC(=O)c2ccc(S(=O)(=O)N3CCCC3)cc2)c1	-10.2
COc1ccccc1-n1nnnc1-c1ccc2ccccc2n1	-12.1
COc1ccc(OC)c(-c2ncnc3sc(C)c(C)c23)c1	-1.4
COc1ccc(CCNC(=O)CN2C=NS(=O)(=O)c3ccccc32)cc1OC	-5.0
CCCOC(=O)CN1C(=O)/C(=C/c2ccccc2)SC1=S	-26.3
Cn1nc(-c2cccnc2)c2[nH]c(-c3ccccc3OC(F)F)nc21	-2.3&-2.3
O=C1OC2(c3ccc(O)cc3Oc3cc(Oc4ccc(O)cc4)ccc32)c2ccccc21 (centres undefined)	-10.6&-10.6
O=C(NCCCn1ccnc1)c1cc(C(=O)C2CCCCC2)c[nH]1	-0.1
O=C(CSc1ncnc2sc3c(c12)CCC3)c1ccc(F)cc1	-4.0
CS(=O)(=O)N1CCSC1c1ccco1 (centres undefined)	-14.1
COC(=O)C(Cc1ccc(OCCn2c(=O)sc3cc(C(=O)c4ccccc4)ccc32)cc1)C(=O)OC	0.7
CC(NS(C)(=O)=O)C(c1cccs1)N1CCOCC1 (centres undefined)	-4.5
COCCN1C(=O)N(C2Cc3ccccc3C2)C(=O)C12CCN(Cc1cnn(C)c1C)CC2	-6.9
COc1cccc2c(Cl)c(CCCl)c(C)nc12	-12.7
CCN(CC)C(=O)c1cc(-c2cnc(C(C)C)nc2)nc2c(C)cccc12	-8.2
O=C(O)CC(c1ccco1)N1Cc2ccccc2C1=O (centres undefined)	3.6
COc1ccc2c(OC)c3ccoc3nc2c1OC	-48.7
CN(C)CCOc1ccc(-c2nc(-c3ccc4c(c3)CCC4=NO)c(-c3ccncc3)[nH]2)cc1	-48.5&-8.8&-7.5&-32.4&-44.9&-26.6&-60.8&-42.8
CC1CCN(CCC2CCCN2S(=O)(=O)c2cccc(O)c2)CC1 (centres undefined)	-15.6
COc1cc(C=Nc2ccc(NC(C)=O)cc2)ccc1OC(=O)c1cccs1	-14.2
Cc1nn(-c2ccccc2)c2sc(C#N)c(N)c12	-26.9
Nc1ccccc1NC(=O)c1ccc(CNC(=O)OCc2cccnc2)cc1	-7.5&-19.2&-19.2
CCn1c(C2CC(=O)N(c3ccccc3)C2)nc2ccccc21 (centres undefined)	3.8
CN/C(=C/[N+](=O)[O-])NCCSCc1csc(CN(C)C)n1	-26.5
COc1ccc(/C=C2/CN(C)C/C(=C\c3ccc(OC)c(OC)c3)C2=O)cc1OC	5.6

(cont.)
SMILES	HCMV UL50-53 inh
COc1cc(OC)c2c3c(c(=O)oc2c1)CCCC3	-14.7
CCN(Cc1nccn1C)C(=O)c1cc(-c2cnc(C)nc2)nc2cc(F)ccc12	34.9&34.9
NC(=O)c1cccc(-c2cnc(N)c(C(=O)c3cccnc3)n2)c1	-68.4
CCC(C)C(c1nc(C(C)C)no1)N1Cc2ccccc2C1=O (centres undefined)	4.1
N#CC(C#N)=C1C=C(c2ccccc2)Oc2ccccc21	-17.7
NS(=O)(=O)c1ccc(-c2ccc(C=C3SC(=O)NC3=O)o2)cc1	-49.2
CC(=O)Nc1ccc(S(=O)(=O)N2CCCCCC2)cc1	-5.9
O=C(CCCN1CCOCC1)c1ccc(F)cc1	-5.3

Copied from the list.
COc1cc(OC)c2c3c(c(=O)oc2c1)CCCC3 in HCMV UL50-53 inh → -14.7
CCC(C)C(c1nc(C(C)C)no1)N1Cc2ccccc2C1=O (centres undefined) in HCMV UL50-53 inh → 4.1
NS(=O)(=O)c1ccc(-c2ccc(C=C3SC(=O)NC3=O)o2)cc1 in HCMV UL50-53 inh → -49.2
O=C(CCCN1CCOCC1)c1ccc(F)cc1 in HCMV UL50-53 inh → -5.3
NC(=O)c1cccc(-c2cnc(N)c(C(=O)c3cccnc3)n2)c1 in HCMV UL50-53 inh → -68.4
CCN(Cc1nccn1C)C(=O)c1cc(-c2cnc(C)nc2)nc2cc(F)ccc12 in HCMV UL50-53 inh → 34.9&34.9
